High-throughput results: PubChem, Center for Chemical Genomics, University of Michigan
HIV TAR-Tat = HIV-1 TAR-Tat binding disruption; HIV-1 TAR RNA, Tat peptide displacement FRET; hits give high values; z-score (no concentration beside the values); actives 0.6% (n = 100,000); AID 1259389;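 also: score is relative to mean and SD of negative controls; some compounds called inactive have numbers as strong as hits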
CDC25B-CDK2 inh = human CDC25B-CDK2/CyclinA binding inhibition; HTRF CDC25B-CDK2/CyclinA binding, anti-His/anti-Flag; hits give high values; P30305+P24941; AID 1259370; z-score (no concentration beside the values); actives 0.72% (n = 94,000);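 also: score is relative to mean and SD of negative controls; strong numbers were not always called active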
* marks the source's active call; other numbers are inactive results; · = no result given.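 The calls were made as follows: active = z-score from 3 up in half or more of its runs; inactive = the rest.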

structure	HIV TAR-Tat	CDC25B-CDK2 inh
NC(=O)C1(N2CCCCC2)CCN(S(=O)(=O)c2cccs2)CC1	-0.16	-1.1
CC1Cc2ccccc2N1S(=O)(=O)c1cn(C)cn1 (stereo not drawn)	1.1	·
O=C1C2CCCN2C(=O)C2CCCN12 (stereo not drawn)	·	-2
O=C(Cc1ccc(F)cc1)Nc1nnc2n1CCCS2	0.51	·
O=C(Nc1ccc(Br)cc1F)c1cnn(-c2ccccc2)c1C1CCNCC1	1.2	-1.9
COC(=O)CSc1nnc2n(-c3ccccc3)c(=O)c3c4c(sc3n12)COC(C(C)C)C4 (stereo not drawn)	·	-1
Cc1c(C(=O)Nc2nc3ccccc3s2)sc2ncn(CC(=O)N3CC(C)CC(C)C3)c(=O)c12 (stereo not drawn)	3.5	·
O=C(Cn1c2ccccc2c2cn[nH]c(=O)c21)NCCC1=CCCCC1	·	-1.6
COC(=O)CSc1nc2sc3c(c2c(=O)n1-c1ccccc1)CCCC3	2.6	-0.08
CC(Nc1sc(S(C)(=O)=O)nc1S(=O)(=O)c1ccc(Cl)cc1)c1ccccc1 (stereo not drawn)	0.78	-3.8
Cc1cccc(C)c1NC(=O)Nc1c(C)n(C)n(-c2ccccc2)c1=O	0.3	-0.35
Cc1ccc(C)c(-c2csc(NC(=O)c3ccc(C#N)cc3)n2)c1	·	-0.6
COC(=O)C1=C(C)Nc2nnnn2C1c1cccnc1 (stereo not drawn)	-0.39	-0.36
Cc1cc2n(n1)C(c1ccccc1O)Nc1ccccc1-2 (stereo not drawn)	1.8	-0.58
Cc1ccc(S(=O)(=O)NC2c3ccccc3-c3ccccc32)cc1	0.82	-1.7
COc1cccc(-c2cn3ncsc3n2)c1	1.2	-0.14
O=C(Cc1ccccc1)OCc1cc(=O)n2nc(C3CC3)sc2n1	0.68	·
Cc1cc2c(cc3c(SCc4nc(-c5ccccc5Cl)oc4C)nnc(C)n32)o1	-0.6	·
COc1ccc(-c2nc(=S)[nH][nH]2)cc1	·	-1.1
N/C(=N\OC(=O)c1cccc(C(F)(F)F)n1)c1cccc(C(F)(F)F)c1	·	-1.3
Cc1ccc2c(=O)cc(C(=O)N(Cc3ccco3)C3CCS(=O)(=O)C3)oc2c1 (stereo not drawn)	-1.6	-2
CCc1nn(CC(=O)NCCCN2CCCCC2)c(=O)c2cc3sccc3n12	-0.71	1
Cc1ccc(-c2cnnc(-n3nc(C)c4c3NC(=O)CC4c3ccsc3)n2)cc1 (stereo not drawn)	1.7	-1.2
COc1ccc(/C(O)=C2/C(=O)C(=O)N(CCc3ccccc3)C2c2ccc(OC)cc2)cc1 (stereo not drawn)	2.1	-2.1

Reprinted from the part before: two entries, then new ones.
structure	HIV TAR-Tat	CDC25B-CDK2 inh
Cc1ccc(-c2cnnc(-n3nc(C)c4c3NC(=O)CC4c3ccsc3)n2)cc1 (stereo not drawn)	1.7	-1.2
COc1ccc(/C(O)=C2/C(=O)C(=O)N(CCc3ccccc3)C2c2ccc(OC)cc2)cc1 (stereo not drawn)	2.1	-2.1
COC(=O)C1=NOC2C(=O)N(c3ccc(Br)cc3)C(=O)C12 (stereo not drawn)	-0.3	8.3
CC12CC3(C)CC(C)(C1)CC(C(=O)NC(C)(C)CO)(C2)C3	·	-1.1
CCCC(=O)Nc1nnc(S(=O)(=O)N2CCCC2)s1	0.4	-0.38
CCOC(=O)N1CCN(S(=O)(=O)c2ccc(Cl)cc2)CC1	-0.95	-1.1
Cc1cc(C)c(C#N)c(SCc2ccc(Cl)cc2)n1	2.1	-0.97
COC(=O)c1sc2ccccc2c1S(=O)(=O)N1CCC(C(N)=O)CC1	-0.61	·
COc1ccccc1OCCSc1nc2ccccc2n1CCO	1.4	-0.82
COc1ccc(OC)c2[nH]c(=O)c(CCNC(=O)CC(C)(C)C)cc12	·	-2.2
O=C(N/N=C\c1c(Cl)cccc1Cl)c1nc(CS(=O)(=O)c2ccc(Cl)cc2)no1	·	-2
Cc1c(Cl)cccc1NC1c2ccccc2C(=O)N1c1cccnc1 (stereo not drawn)	1.9	-1.2
COC(=O)C1C(=O)C2=C(CC1C)Nc1ccccc1NC2c1ccc2c(c1)OCO2 (stereo not drawn)	1.1	-2
CCc1ccc(C2c3c(-c4cc(C)ccc4O)n[nH]c3C(=O)N2Cc2cccnc2)cc1 (stereo not drawn)	2.6	1.5
O=C(CSc1nc2ccccc2c(=O)n1CC1CCCO1)Nc1ccccc1Cl (stereo not drawn)	2.1	·
COc1ccc(Cl)cc1N1C(=O)CC(C)(C)CC1=O	·	-2.2
O=C(Nc1cc(C(F)(F)F)cc(C(F)(F)F)c1)c1ccccc1F	·	0.36
Fc1ccccc1N1CCN(c2ncc3c(n2)CCN(Cc2ccc4c(c2)OCCO4)C3)CC1	0.47	·
N#Cc1cc2c(nc1S(=O)Cc1ccc(Cl)cc1)CCCC2 (stereo not drawn)	0.24	-1.2
COc1ccc(N2CC(NC(=O)Nc3nccs3)CC2=O)cc1 (stereo not drawn)	0.65	·
CCCCNc1c2c3c(cccc3n(C)c1=O)C(=O)c1ccccc1-2	-14	-4.9
Cc1nnc2sc(-c3ccccc3)nn12	1	-0.89
CCc1ccc(NC(=O)NC2CC(=O)N(C3CCCC3)C2)cc1 (stereo not drawn)	-0.15	-1
Cc1nc2sccn2c1-c1csc(Nc2ccc(C(=O)O)cc2)n1	·	-3.1
CCOc1ccccc1Nc1nc(-c2sc(C)nc2C)cs1	1.4	-1.2
Cc1nc(SCc2nnc(-c3ccccc3)o2)c(C#N)c(C)c1C	·	-9.6
CCOc1ccc(S(=O)(=O)Nc2c(-n3cnnc3)nn(CC)c2C)cc1	2.7	-2.4
O=c1cc(-c2ccccc2)oc2c(O)c(O)ccc12	19*	-2.1
C=CCN1C(=O)C(CCCC)NC1=S (stereo not drawn)	·	-2.6
Cn1c2ccccc2c2n[nH]c(=S)nc21	·	-1.1
COc1ccc(OCc2nn3c(-c4ccc(F)cc4)nnc3s2)cc1	1.8	-1.7
CCN(CC)S(=O)(=O)c1ccc2c(c1)nc(CN(C)S(=O)(=O)c1ccccc1)n2C	1.5	·
CCC(C)OC(=O)C1=C(C)NC2=C(C(=O)CC(c3ccccc3)C2)C1c1cccc(OC)c1OC (stereo not drawn)	0.78	0.2
CCOC(=O)CSc1nnc2c3c4c(sc3nc(SC)n12)COC(C(C)C)C4 (stereo not drawn)	0.45	-1.4
COc1ccc(C2CC(=O)N3CN(c4ccccc4OC)CSC3=C2C#N)c(OC)c1 (stereo not drawn)	0.08	8*
CCc1nnc2sc(COc3ccc(Br)cc3)nn12	1.9	-0.8
CCOC(=O)CSc1nnc(-c2ccco2)n1-c1ccccc1	·	-3.4
CCOC(=O)c1sc(NC(=O)c2cc(=O)c3cc(C)cc(C)c3o2)c(C(=O)OCC)c1C	1.1	-0.74
CCOC(=O)c1cc(C)n(CC2CCC(C(=O)NCc3cccs3)CC2)c1C (stereo not drawn)	0.11	·
COc1ccccc1C1CC(=O)C2=C(C1)NC(C)=C(C(=O)OCC1CCCO1)C2c1ccccc1F (stereo not drawn)	0.92	-0.52
Cc1c(OC(C)C(=O)O)ccc2c3c(c(=O)oc12)CCCC3 (stereo not drawn)	·	-0.61
O=C(Cn1c(=O)oc2cc(S(=O)(=O)N3CCCC3)ccc21)NCc1ccccn1	1.2	-0.08
COc1ccc(OCC(O)Cn2nc(C)cc2C)cc1 (stereo not drawn)	2.3	-0.07
Cc1ccc2cc(CCNC(=O)CC(C)(C)C)c(=O)[nH]c2c1C	·	-1.9
Cc1nn(CC(=O)N2CCCCCC2)c(=O)c2cc3sccc3n12	·	-1.5
CC(C)CCNC(=O)C1CCCN(S(=O)(=O)c2ccc3c(c2)CC(C)N3C(=O)C2CC2)C1 (stereo not drawn)	0.97	·
Cc1cc(Cl)ccc1OCc1nc(-c2ccc(-n3cccc3)cc2)no1	-0.5	-3.2
CCOc1ccc2ncc(S(=O)(=O)c3ccc(C)cc3)c(N3CCOCC3)c2c1	0.14	-1.5
COc1ccc(C2N(c3ccccn3)C(=O)C3CCCN32)c(OC)c1 (stereo not drawn)	·	-1.1
CC(C)(C)c1ccc(C2NC(=O)c3n[nH]c(-c4ccco4)c32)cc1 (stereo not drawn)	-1	-0.52
Cc1c(C(=O)Nc2nc(-c3cccs3)ns2)oc2ccccc12	1.7	-5.3
CCN(CC)C(=O)C1Sc2nnc(C)n2NC1c1ccc(OC)c(Br)c1 (stereo not drawn)	2.3	-1.2
CCCNC(=O)C1CCCN(c2nnc(N3CCCC3=O)s2)C1 (stereo not drawn)	0.15	-0.85
Cc1ccc(S(=O)(=O)N2CCCC(c3nc(-c4ccccc4Br)no3)C2)cc1 (stereo not drawn)	0.9	·
Cc1ccc(C2NC(=O)NC3=C2C(=O)CC(C)(C)C3)cc1 (stereo not drawn)	·	0.8
N#C/C(=C\Nc1ncccn1)C(=O)c1cccs1	·	0.18
CCCCc1nnc2sc(NC(=O)c3cccs3)nn12	3	-0.85
O=C(Cn1c(=O)c2cccn2c2ccccc21)NC1CCCc2ccccc21 (stereo not drawn)	2.5	·
COc1ccc(N2C(=O)C3C(c4ccccc4Cl)OC4(C(=O)c5ccccc5C4=O)C3C2=O)cc1 (stereo not drawn)	0.78	-0.25
N/C(CCS(=O)(=O)c1ccc(Cl)cc1)=N\O	·	-1.2
Cn1c(=O)c2c(nc(Br)n2Cc2ccc(Cl)cc2)n(C)c1=O	3.2	-7.5
O=C(CCS(=O)(=O)c1ccc2c(c1)CCN2C(=O)C1CC1)Nc1ccc(Cl)cc1F	0.53	·

7 compounds out of the list, ordered by length of the SMILES, largest number first:
structure	HIV TAR-Tat	CDC25B-CDK2 inh
COc1ccc(N2C(=O)C3C(c4ccccc4Cl)OC4(C(=O)c5ccccc5C4=O)C3C2=O)cc1 (stereo not drawn)	0.78	-0.25
O=C(CCS(=O)(=O)c1ccc2c(c1)CCN2C(=O)C1CC1)Nc1ccc(Cl)cc1F	0.53	·
Cc1ccc(S(=O)(=O)N2CCCC(c3nc(-c4ccccc4Br)no3)C2)cc1 (stereo not drawn)	0.9	·
CCN(CC)C(=O)C1Sc2nnc(C)n2NC1c1ccc(OC)c(Br)c1 (stereo not drawn)	2.3	-1.2
Cc1ccc(C2NC(=O)NC3=C2C(=O)CC(C)(C)C3)cc1 (stereo not drawn)	·	0.8
Cc1c(C(=O)Nc2nc(-c3cccs3)ns2)oc2ccccc12	1.7	-5.3
CCCCc1nnc2sc(NC(=O)c3cccs3)nn12	3	-0.85

Next part
structure	HIV TAR-Tat	CDC25B-CDK2 inh
O=c1ccc(-c2ccc(S(=O)(=O)N3CCCN(Cc4ccccc4Cl)C3)s2)n[nH]1	1.2	·
CC1(C)CC2CC(C)(CN2C(=O)CSc2nc(-c3ccco3)cc(C(F)(F)F)n2)C1 (stereo not drawn)	·	0.37
Cn1c(C(=O)NCC2CCCO2)cc2cc(S(=O)(=O)N3CCCCC3)ccc21 (stereo not drawn)	0.66	·
COC(=O)c1sccc1S(=O)(=O)Nc1cccc(F)c1	1.2	·
CCCN(c1ccccc1F)S(=O)(=O)c1ccc(-c2ccc(=O)[nH]n2)s1	0.6	·
COc1ccc(CN2CCN(Cc3cc(OC)c4c(c3)OCO4)CC2)cc1Br	·	-1.7
C=CCOC(=O)c1[nH]c2c(c1C)C(=O)CC(c1cccs1)C2 (stereo not drawn)	·	-1.2
COC(=O)c1ccc2c(c1)N(C)S(=O)(=O)c1cnc(SC)nc1-2	·	-1.1
COc1ccccc1-c1ncnc2c(C#N)c3ccccn3c12	1.6	0.4
Cc1ccc(Nc2cc(C)ncn2)cc1	1.1	-0.37
O=c1c(F)cn(CC2CC(c3ccccc3)=NO2)c(=O)n1CC1CC(c2ccccc2)=NO1 (stereo not drawn)	·	-3.4
COc1ccc2nc(NS(=O)(=O)c3ccccc3)c(N3CCN(c4ccccc4)CC3)nc2c1	1.4	-0.44
O=C(c1ccc(Cl)cc1Cl)N1CCN(Cc2ccccc2)CC1	·	-1.4
O=C1CC(c2cccc(O)c2)c2cc3c(cc2N1)OCO3 (stereo not drawn)	·	-1.7
O=S(=O)(NNc1nccc(-c2cccnc2)n1)c1cccc(C(F)(F)F)c1	·	-1.2
CCCc1nn2cc(-c3ccc(C)c(C)c3)nc2s1	2.6	-1.2
CCCCN(C)C(=O)c1c(C)oc2ncnc(N3CCOCC3)c12	1.5	·
CN1CCN(c2ccccc2NC(=O)c2cc3c(=O)[nH]c4ccccc4c3s2)CC1	0.62	2.6
CCCCCCC1C(C#N)=C(N)OC2=C1C(=O)CC(C)(C)C2 (stereo not drawn)	·	0.48
CC(=O)NN1C(=O)CSC1=S	·	-0.61
Cc1cc(NC(=O)CSc2c(CC(C)C)cnc3c2c(=O)n(C)c(=O)n3C)no1	1.1	·
Cc1ccc2nc(C3=C(O)CN(c4cccc5ccccc45)C3=N)[nH]c2c1	-1.2	1.6
O=C(NCc1ccco1)C1CCCN(S(=O)(=O)c2cnc[nH]2)C1 (stereo not drawn)	0.45	-0.32
O=C1CCCc2cc(S(=O)(=O)NCCN(Cc3ccco3)C3CCCC3)ccc2N1	0.53	·
CCc1nnc(NC(=O)CSCc2cc(=O)n3nc(C(C)C)sc3n2)s1	1	·
CCN(CC)C(=O)C1Sc2nnc(-c3ccccc3)n2NC1c1ccc(F)cc1 (stereo not drawn)	0.27	-1.6
COc1ccc(N2CCN(c3oc(COc4ccc(Cl)cc4)nc3C#N)CC2)cc1	3.9	-0.88
O=C1c2ccccc2C(=O)C1c1ccncc1	·	-1.5
O=C(c1ccc([N+](=O)[O-])cc1)N1CCNCC1	·	0.32
